Screens as filed in PubChem.
PrP UTR inh: suppresses PrP 5' UTR mRNA reporter expression. inhibition, % (no concentration beside the values). 340,000 tested, 0.35% active. cell-based PrP 5' UTR mRNA reporter, plate reader. AID 488862;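 active = every replicate at 50% or more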;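 note: 0 = median of the neutral control wells; tested in H4 reporter cells; numbers are from one replicate; inactives centre near -14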
ugtP null kill: compounds lethal to S. aureus RN4220 ugtP deletion mutant; OD600 growth, 16 h; some inactives read as strong as hits; 330,000 tested, 0.54% active; growth inhibition, % (concentration not given with the values);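 active = z-score under -3 and OD600 up to 0.15 on both plates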;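 note: plate controls were untreated wells for no effect and antibiotic for full effect; wells of about 80 µL received 100 nL stock; the first replicate is given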
BJeLR viability: BJeLR cell viability loss | BJeLR (HRASV12) viability, CellTiter-Glo ATP luminescence, 48 h; reference of the scale not given here | 300,000 tested, 0.17% active | inhibition, % (test concentration not listed);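 active = replicate mean above 50%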;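 note: 50 nL library stock added to about 25 µL; numbers are from one replicate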
Mtb hypoxia inh: reduces hypoxia-regulated biosensor signal in M. tuberculosis; M. tuberculosis hypoxia-regulated fluorescent reporter, fluorescence; fluorescence inhibition, % (test concentration not listed); 300,000 tested, 0.1% active;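 active = 35 to 45% if threefold the growth effect, above 45% if 1.5-fold the growth effect; inactive = the rest, general growth blockers included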;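 note: wells of about 50 µL received 100 nL stock; 0% = vehicle wells and 100% = reference inhibitor wells; whole bacteria with a GFP reporter of the hypoxia response; strong numbers were not always called active; many hits fall short of the cut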
Sa RN4220 lethal: S. aureus RN4220 growth inhibition; OD600, 16 h; inhibition, % (test concentration not listed); 330,000 tested, 0.33% active;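 active = z-score of -3 or lower and OD600 up to 0.18 on both plates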;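 note: plate controls were untreated cells for no effect and reference antibiotic for full effect; stock transfer was 100 nL into about 80 µL; one replicate is shown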
Bead autofluor: compound fluorescence in toxin protease inhibitor counterscreen. compound autofluorescence counterscreen, microsphere flow cytometry; stronger effect = higher value. fluorescence intensity (concentration not given with the values). 360,000 tested, 3.1% active;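 active = at least 3 SD above the mean of all compounds, about 16000 in these data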;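 note: 100 nL of 1 mM stock went into each well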
Mtb hypoxia inh growth: recorded beside Mtb hypoxia inh, whose call it bears; growth inhibition, %; measured here: M. tuberculosis growth (absorbance);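 0% = vehicle and 100% = reference antibiotic; read after six days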
* = called active by the depositor; · = not tested or not shown.

Start of the data: the first 2 compounds as a preview:
SMILES	PrP UTR inh	ugtP null kill	BJeLR viability	Mtb hypoxia inh	Mtb hypoxia inh growth	Sa RN4220 lethal	Bead autofluor
O=C(CCN1C(=O)/C(=C/c2ccccc2Cl)SC1=S)NCCCN1CCOCC1	5	10	5	-1	-3	4.1	5053
CCOC(=O)C1(Cc2ccc(OC)cc2)CCN(C(=O)c2sc(C)nc2C)CC1	-22	0	0	4	12	0.0	2610

The list itself, from the first entry:
SMILES	PrP UTR inh	ugtP null kill	BJeLR viability	Mtb hypoxia inh	Mtb hypoxia inh growth	Sa RN4220 lethal	Bead autofluor
O=C(CCN1C(=O)/C(=C/c2ccccc2Cl)SC1=S)NCCCN1CCOCC1	5	10	5	-1	-3	4.1	5053
CCOC(=O)C1(Cc2ccc(OC)cc2)CCN(C(=O)c2sc(C)nc2C)CC1	-22	0	0	4	12	0.0	2610
COc1cc(CCC(=O)NNC(=O)c2cccc(Cl)c2)cc(OC)c1OC	0	13	2	9	2	3.4	4378
CCCc1cc(=O)[nH]c(SCC(=O)NC2CC2)n1	8	-5	·	-7	-8	0.0	4757
Cc1ccc(O)c(C(=O)c2cnn(-c3ccc(S(=O)(=O)N4CCOCC4)cc3[N+](=O)[O-])c2)c1	-7	3	-1	4	2	5.4	2454
COc1ccc(C(=O)Nc2cccc(-c3ccc4nncn4n3)c2)cc1OC	-16	-4	7	3	-1	-2.4	5343
Cc1ccc(C)c(Cn2cnc3c(cnn3C(C)(C)C)c2=O)c1	-5	12	-10	8	4	13	2441
Nc1nnc(SCc2ccc3c(c2)OCO3)s1	-11	18	2	·	·	2.3	3334
Cn1nc(C(=O)N2CCN(c3ccccn3)CC2)c2ccccc2c1=O	-8	-3	-6	-2	6	-2.4	5804
Cc1ccc(S(=O)(=O)N(C)C)cc1-n1c(SCC(=O)Nc2ccccc2)nc2ccccc2c1=O	-8	0	-1	13	8	4.1	2022
c1ccc2c(c1)nc(N1CCCCCC1)c1ccccc12	-15	24	14	6	1	-7.4	4437
CC(C)[C@H](NC(=O)c1cccc(S(=O)(=O)N2CCOCC2)c1)C(=O)NCc1ccc(F)cc1	-12	10	·	5	8	3.3	3995
O=C(Nc1ccccc1N1CCCCC1)c1ccc(-c2cc(Cl)ccc2Cl)o1	-20	14	-9	8	4	2.0	5139
CN(C)C(=O)CCc1ccc2c3c([nH]c2c1)[C@]1(CCC2CCCC2)[C@@H](C(=O)N2CCOCC2)C[C@H](CC(=O)NCCCn2ccnc2)C(=O)N1CC3	-14	-1	·	-2	6	12	3710
Cc1ccccc1NC(=S)NC1CCN(Cc2ccccc2)CC1	-7	-2	-5	1	6	0.9	2457
Cc1oc(S(=O)(=O)N2CCCC2)cc1C(=O)Nc1ccccc1	-18	3	-1	4	7	2.1	4126
O=C(N/N=C/c1ccc(-c2ccccc2[N+](=O)[O-])o1)[C@H]1C[C@@H]1c1ccccc1	-23	·	-4	·	·	·	2499
CCCN1CCC(=NNc2ccc(C(=O)O)cc2)CC1	-35	6	12	11	8	15	4094
CC1=C(C(N)=O)C(c2cccnc2)n2nc(-c3cccc(C)c3)nc2N1 (configuration not stated)	-13	-2	-4	5	5	-0.1	9412
C=CCOc1ccc(CNn2cn[nH]c2=S)cc1	-1	5	-11	9	0	9.1	9076
COc1cccc(C(=O)Nc2ccc(Cl)c(C(F)(F)F)c2)c1	-44	-30	-4	14	18	4.2	3881
Cc1ccc(S(=O)(=O)N2CCC(C(=O)N[C@@H](C)C(=O)Nc3ccc(F)cc3)CC2)cc1	-3	5	2	6	2	0.3	4180
S=c1[nH]nc(-c2ccccn2)n1N=Cc1cccc(Cl)c1	·	2	·	-4	5	3.9	·
COC(=O)C(Cc1c[nH]c2ccccc12)NC(=O)c1cncc(Br)c1 (configuration not stated)	0	-3	4	3	-2	-1.0	3312
COc1cccc(C=Nn2nnnc2N)c1O	·	8	·	-10	-6	2.4	·
SMILES	PrP UTR inh	ugtP null kill	BJeLR viability	Mtb hypoxia inh	Mtb hypoxia inh growth	Sa RN4220 lethal	Bead autofluor
CSc1nc(SCCO)c2sc3nc(-c4ccco4)c4c(c3c2n1)CC(C)(C)OC4	-12	-17	4	1	3	3.6	5599
CCc1cc2c(N=Nc3c(O)[nH]c4ccccc34)ncnc2s1	-29	1	12	-1	-5	1.9	2553
Cn1ncc([N+](=O)[O-])c1C(=O)Nc1ccc(-c2nc3ccccc3o2)cc1	-35	·	8	·	·	·	4751
CC(=NCCc1c(C)[nH]c2ccc(C)cc12)C1=C(O)CC(c2ccccc2)CC1=O (configuration not stated)	-33	-5	12	0	7	2.2	10250
Cc1ccc(C(=O)n2c(-c3ccccc3)cnc2SCC(=O)Nc2ccccc2)cc1	-5	-5	-1	4	7	8.6	2051
O=C(Nc1ccc2ccccc2c1)c1ccc(Cl)cc1	-50	8	-7	14	-2	1.2	3971
CC(=O)Nc1ccc(C2NC(=O)c3ccccc3O2)cc1 (configuration not stated)	-9	7	-1	18	8	6.7	4147
COc1ccc(CN2C(=O)c3ccccc3C2=O)cc1C(=O)OCC(=O)NC1CCCCC1	-3	7	-10	7	7	8.2	7629
CCOc1ccc(N(CC(=O)NC2CCCCC2)C(=O)CCC(=O)Nc2ccccn2)cc1	-32	13	-16	7	2	3.1	3695
CCCOc1ccc(N2C(=O)CC(N3CCC(c4nncn4CC)CC3)C2=O)cc1 (configuration not stated)	-18	-8	0	·	·	-0.1	2709
O=Cc1ccc(OCC(=O)N2CCOCC2)cc1	-5	1	-10	2	-9	4.8	4432
O=C1c2oc3ccccc3c(=O)c2C(c2cccs2)N1CCCN1CCOCC1 (configuration not stated)	-15	-7	-6	6	2	-10	2887
COc1ccc(CCNC(=O)c2cc(C3CC3)on2)cc1OC	-16	5	-3	9	11	2.8	4338
COc1ccc(S(=O)(=O)N(C)C[C@H]2Oc3c(NS(=O)(=O)c4cn(C)cn4)cccc3C(=O)N([C@H](C)CO)C[C@@H]2C)cc1	-17	-6	·	4	10	-13	4635
CC(CN1C2=NCC(C(C)C)N2CC1Cc1ccc(O)cc1)NC(=O)CCC1CCCCC1 (configuration not stated)	·	1	·	-2	4	6.6	·
COc1ccc(C)cc1-n1nnnc1SCc1nc2ccccc2s1	-24	-1	-15	-3	-12	1.6	9135
O=C(Nc1cccc(-c2cn3cccnc3n2)c1)Nc1ccccc1F	-10	8	-6	-6	-2	3.2	3212
Cc1cn(C(=O)c2ccccc2)c(=S)n1-c1ccc(Cl)cc1	-6	-20	5	7	13	10	17230*
Cc1onc(-c2ccccc2)c1C(=O)N=C(N)c1ccc(Cl)cc1	-10	-3	1	10	0	1.0	5654
O=C(CCCN1C(=O)c2ccccc2C1=O)Nc1nncs1	-9	0	-2	1	4	2.7	3226
Cc1ccc(C(C)C)c(OCCCCCN2CCOCC2)c1	-9	3	-16	10	11	3.7	5215
CCCC(=O)N1CCN(c2ccc(NC(=O)c3ccc(N4CCCC4)c([N+](=O)[O-])c3)cc2Cl)CC1	-20	3	-2	14	7	1.8	3593
O=C(c1ccccc1)C(C(=O)N1CCCCC1)n1ccccc1=O (configuration not stated)	-27	8	-2	4	-7	8.2	4107
CC1CSC(N(C(=O)c2ccc(S(C)(=O)=O)cc2)c2ccc(Cl)cc2)=N1 (configuration not stated)	-33	7	4	0	6	-1.6	5551
CC1CN(c2ccc(Cl)nn2)CC(C)O1 (configuration not stated)	-16	7	2	4	10	7.2	4060
SMILES	PrP UTR inh	ugtP null kill	BJeLR viability	Mtb hypoxia inh	Mtb hypoxia inh growth	Sa RN4220 lethal	Bead autofluor
CN(/C=C/C(=C\C=[N+](C)c1ccccc1)OCCCS(=O)(=O)[O-])c1ccccc1	9	7	-11	6	2	11	4513
Cc1ccc(C(=O)C2CCNCC2)cc1	-15	3	4	13	14	3.3	4354
COc1ccc(OCC(=O)NC(=S)Nc2ccc(N3CCOCC3)c(Cl)c2)cc1	-15	7	-2	38*	64*	-2.3	3819
COc1ccccc1NC(=S)Nc1ccccn1	-4	1	-1	3	4	-4.1	2220
CC(C)Sc1nc(N)c2c3c(sc2n1)CN(C)CC3	-10	-1	3	-3	1	15	3179
Cc1cccc(Nc2nc(-c3ccc(F)c(C)c3)cs2)n1	-60	70	-5	2	-3	-5.0	3171
CCOC(=O)C1=C(C)NC(C)=C(C(=O)OCC)C1C(=O)OCC(=O)NCCc1ccc(S(N)(=O)=O)cc1	-14	6	4	1	-1	2.7	4757
Cn1nc(C(F)(F)F)cc1C(=O)Nc1ccc(-c2ccno2)cc1	-16	-3	15	6	2	11	4307
CCC1CCCCN1C(=O)Cn1nc([N+](=O)[O-])c(Cl)c1C (configuration not stated)	-13	-2	4	9	6	6.1	4760
O=C(Nc1ccc(-c2cnco2)cc1)c1ccc(F)cc1F	-45	4	-9	-2	0	2.6	3173
COc1ccc(CNc2ccc(S(=O)(=O)N3CCN(C)CC3)cn2)cc1OC	-7	3	7	-1	2	5.1	6074
O=C(NC1CCCC1)C(c1ccccn1)N(Cc1ccc(F)cc1)C(=O)c1csnn1 (configuration not stated)	-16	-1	-4	7	4	0.8	4108
CC1=NN(Cc2ccccc2)C(=O)/C1=C/c1ccc(N(C)C)cc1	-13	3	5	18	5	4.9	10752
CCOc1ccc(C(=O)OCC(=O)NCc2ccco2)cc1OCC	-26	-3	2	14	4	-13	2955
CC(C)S(=O)(=O)c1csc(NC(=O)Nc2ccc(Cl)cc2)c1Cl	-22	-12	4	1	-2	-8.6	6110
CCCC(=O)c1ccc(N2CCC(C)CC2)c(F)c1	-33	34	16	19	9	13	2510
O=C(Nc1ccc2c(c1)ncn2-c1ccccc1)c1ccco1	-29	-3	2	2	6	3.5	7754
COc1ccc(S(=O)(=O)N2CCN(c3cccc(C)c3C)CC2)cc1	-42	1	-3	·	·	0.8	6112
COc1ccc(N2C(=O)/C(=C/c3cccs3)NC2=S)cc1	-13	37	16	11	4	6.6	8850
COc1ccc(CNC(=O)CSc2nc3ccc(OC)cc3[nH]2)cc1	-26	4	3	-1	11	-1.0	3478
COc1cccc(C(=O)Nc2nc(C)cs2)c1	-102	-1	-6	9	17	-0.8	2954
COCCNc1oc(/C=C/c2ccc(F)cc2)nc1S(=O)(=O)c1ccccc1	0	-6	12	-6	6	-3.7	6351
O=C(Cc1ccccc1)NC1CCN(C(=O)NCc2ccccc2)CC1	-16	-1	7	6	10	3.7	3726
CC1(C)C2([N+](=O)[O-])CN3CC1([N+](=O)[O-])CN(C2)C31CCCC1	-31	2	-1	-3	-8	1.7	17714*
O=c1[nH]c2ccc(S(=O)(=O)Nc3ccc(-c4nnc5n4CCCCC5)cc3)cc2o1	-12	4	2	4	8	1.8	4592

Reprinted at random: 5 entries already listed.
SMILES	PrP UTR inh	ugtP null kill	BJeLR viability	Mtb hypoxia inh	Mtb hypoxia inh growth	Sa RN4220 lethal	Bead autofluor
COc1cccc(C(=O)Nc2nc(C)cs2)c1	-102	-1	-6	9	17	-0.8	2954
COc1ccc(CNC(=O)CSc2nc3ccc(OC)cc3[nH]2)cc1	-26	4	3	-1	11	-1.0	3478
COc1ccc(CNc2ccc(S(=O)(=O)N3CCN(C)CC3)cn2)cc1OC	-7	3	7	-1	2	5.1	6074
CN(/C=C/C(=C\C=[N+](C)c1ccccc1)OCCCS(=O)(=O)[O-])c1ccccc1	9	7	-11	6	2	11	4513
O=C(Nc1ccc2c(c1)ncn2-c1ccccc1)c1ccco1	-29	-3	2	2	6	3.5	7754

(continued)
SMILES	PrP UTR inh	ugtP null kill	BJeLR viability	Mtb hypoxia inh	Mtb hypoxia inh growth	Sa RN4220 lethal	Bead autofluor
O=C(NC(=S)Nc1ccc(CN2CCOCC2)cc1)c1ccc(-c2cccc(Cl)c2)o1	-7	72	1	5	4	26	5228
CCOC(=O)c1c(-c2cccc(C)c2)csc1NC(=O)c1c(-c2ccccc2)noc1C	16	-4	23	·	·	-0.3	2136
COc1ccccc1NC(=O)Nc1nc(CC(=O)NCc2c(F)cccc2F)cs1	-36	4	3	9	9	0.3	5607
CC(=O)c1ccc(-n2c(CCC(=O)O)ccc2-c2ccc(C)cc2)cc1	-16	11	-3	-2	3	3.9	3529
Cc1nc(C)n(CC(=O)N2CCCC(C(=O)c3cccc4ccccc34)C2)n1 (configuration not stated)	-45	9	-7	13	-2	6.8	5429
COc1cc2cncc(Cc3ccccc3)c2cc1O	-33	-3	·	5	8	3.0	3565
COc1c(C)cc(Br)cc1C(=O)NC(=S)Nc1ccc(Cl)c(C(=O)O)c1	-9	-8	0	9	0	9.9	3938
COc1ccc(NC(=O)C(OC(=O)c2ccc([N+](=O)[O-])o2)c2ccccc2)cc1Cl (configuration not stated)	-30	·	1	·	·	·	1993
COc1ccc(C(=O)CC(=O)C(=O)Nc2cccc([N+](=O)[O-])c2C)cc1	-19	20	4	10	2	35	3880
